TRPML1 blocker: inhibitors of human TRPML1 channel. Q9GZU1. TRPML1-inducible cells, Ca2+ dye fluorescence, FDSS; stronger effect = lower value; inhibition of EC80 agonist-evoked calcium signal. 390,000 compounds, 0.02% hits. activity change, negative = inhibition, % (concentration not given with the values). AID 624415; in the data active means activity change below about -50%; inconclusive means about -30% to -50%; inactive means above about -30%;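 further: stimulus is agonist 54-4 at its EC80 concentration; on the % scale 0 is the no-effect control and ±100 the full control effect; the text of the record puts the active cut at -80%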
Target sequence (Q9GZU1 whole entry, looked up): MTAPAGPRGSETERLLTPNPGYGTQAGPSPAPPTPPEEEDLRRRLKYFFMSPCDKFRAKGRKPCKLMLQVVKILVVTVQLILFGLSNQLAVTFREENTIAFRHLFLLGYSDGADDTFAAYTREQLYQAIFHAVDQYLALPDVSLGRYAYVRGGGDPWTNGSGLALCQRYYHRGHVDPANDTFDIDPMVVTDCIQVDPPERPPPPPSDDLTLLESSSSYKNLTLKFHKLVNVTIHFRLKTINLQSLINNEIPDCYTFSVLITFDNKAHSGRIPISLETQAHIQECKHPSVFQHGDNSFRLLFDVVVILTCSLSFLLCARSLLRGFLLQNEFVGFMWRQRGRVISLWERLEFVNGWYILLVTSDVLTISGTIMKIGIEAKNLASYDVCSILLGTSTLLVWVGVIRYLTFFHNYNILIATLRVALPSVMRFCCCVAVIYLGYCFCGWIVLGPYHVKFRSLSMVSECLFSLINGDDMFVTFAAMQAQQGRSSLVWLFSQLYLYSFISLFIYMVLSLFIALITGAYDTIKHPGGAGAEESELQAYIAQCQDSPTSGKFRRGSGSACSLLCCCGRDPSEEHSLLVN
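Calcium fluorescence in TRPML1-DL cells induced overnight with Tet: a 110 s read after compound pin addition, then a 110 s antagonist read after challenge with 54-4 at 4 uM final (EC80).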
TRPML1 ag: agonists of human TRPML1 channel | Q9GZU1 | TRPML1-expressing cells, Ca2+ dye fluorescence, FDSS; host cell line not named in the record; reference of the full effect not given here | activation, % (concentration not given with the values) | 410,000 compounds, 0.12% hits | AID 624414; in the data active = activation above about 50%; inconclusive = about 30% to 50%; inactive = below about 30%; further: 0% is about no effect; the text of the record puts the active cut at 80%
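Cells: TRPML1-DL, 1X Tet inducer, ~16 h at 37 degrees C/5% CO2. Dye: ABD Ca8 no-wash + quencher, 45-90 min RT. Read: 10 s baseline, compound add, 110 s agonist phase; 54-4 EC80 (4uM final), 110 s antagonist phase.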
Six1-Eya2 blk: inhibitors of human Six1/Eya2 interaction; AlphaScreen GST-Six1/His-Eya2 binding, biochemical; stronger effect = lower value; control for the full effect not named in the record; 360,000 compounds, 0.56% hits; activity change, % (test concentration not listed); in the data active = activity change below about -65%; inconclusive = about -30% to -65%; inactive = above about -30%; further: on the % scale 0 is the no-effect control and ±100 the full control effect
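AlphaScreen luminescence read after one hour at 37 °C in darkness. Pin-transferred compounds met GST-Six1 and His-Eya2 protein (5X stock 250 nM/500 nM) plus glutathione donor and Ni-chelate acceptor beads (5X, 50 ug/mL).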
D2 PAM: positive allosteric modulators of human D2 dopamine receptor | DiscoveRx D2 beta-arrestin cells, luminescence, 90 min; 100% = 57 uM dopamine signal | 360,000 compounds, 0.23% hits | AID 624464 | potentiation, % (no concentration beside the values) | P14416; active = potentiation of 50% or more; inconclusive = 30% to 50%; inactive = 30% or less;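 further: compound concentration not given in the record; tested on top of an EC20 dose of dopamine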
Target sequence (P14416 whole entry, looked up): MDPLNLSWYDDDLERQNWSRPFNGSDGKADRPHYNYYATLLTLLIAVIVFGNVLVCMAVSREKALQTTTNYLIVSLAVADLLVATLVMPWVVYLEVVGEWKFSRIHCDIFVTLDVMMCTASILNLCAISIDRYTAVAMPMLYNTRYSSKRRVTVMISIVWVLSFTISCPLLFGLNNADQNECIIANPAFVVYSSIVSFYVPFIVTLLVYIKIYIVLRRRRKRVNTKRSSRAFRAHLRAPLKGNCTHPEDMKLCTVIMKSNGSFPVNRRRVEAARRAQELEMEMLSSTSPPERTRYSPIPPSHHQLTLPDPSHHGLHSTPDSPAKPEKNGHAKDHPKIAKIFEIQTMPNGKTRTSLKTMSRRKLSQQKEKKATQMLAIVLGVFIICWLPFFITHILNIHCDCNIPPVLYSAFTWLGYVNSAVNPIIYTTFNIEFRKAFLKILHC
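D2 cells co-treated with compound plus 50 nM dopamine (EC20) for 90 min at 37 deg C to detect potentiation. Beta-arrestin recruitment was read as enzyme-fragment luminescence after 1 h at ambient temperature. Full response was set by 57 uM dopamine.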
D2 agonist: activates the human D2 dopamine receptor | 360,000 compounds, 0.084% hits | P14416 | DiscoveRx PathHunter D2 beta-arrestin, luminescence, 90 min; 100% = 57 uM dopamine signal | activation, % (test concentration not listed); in the data active = activation above about 40%; inconclusive = about 15% to 40%; inactive = below about 15%; further: compound concentration not given in the record; the text of the record calls up to 30% inactive
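Agonist mode: compounds alone added to overnight-plated D2 PathHunter cells for 90 min at 37 C, with 57 uM final dopamine (EC100) defining full response. Beta-arrestin recruitment detected by chemiluminescent reagent, read after 1 h at ambient temperature.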
PINK1 expr mod: PINK1 expression modulation | 410,000 compounds, 0.2% hits | Potency, µM (top dose mostly 76.6 µM), without a hit: at the highest dose activation (PINK1 increase), usual class: activators | PINK1 immunofluorescence, high-content cytometry, 24 h; active = well fitted activation curve with a large enough effect; inconclusive = small, poorly fitted or top-dose-only effect; inactive = flat fitted curve, though single readings scatter; cell line not stated here;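 further: potency means the concentration at half of the fitted maximal effect; % of control where 0% means no effect; nearly all actives have a fitted effect of over 65% in size; a mitochondrial uncoupler was the plate control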
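Readout is PINK1 immunofluorescence, quantified alongside mitochondrial, cell and nuclear markers by laser-scanning microplate cytometry. Cells from a stable line were exposed to compound titrations (5 concentrations) for 24 hours, with CCCP controls.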
Numbers without * were called inactive; ? = inconclusive; . = no result given; & = joins results of further samples; [ ] = remark or other dose.

SMILES | TRPML1 blocker | TRPML1 ag | Six1-Eya2 blk | D2 PAM | D2 agonist | PINK1 expr mod
O=C(CN1CCN(Cc2ccc(F)cc2)C1=O)NC1CCCC1 | -6.1 | -0.4 | 3.9 | -6.1 | -4.8 | 0.0%
CCc1ccc2oc(-c3cc(NC(=O)c4cc([N+](=O)[O-])ccc4N4CCOCC4)ccc3Cl)nc2c1 | -6.8 | -0.9 | . | . | . | 3.1%
Cc1cccc(C(=O)Nc2c(-c3ccccc3)nc3cc(C)ccn23)c1 | 12.0 | 0.1 | . | . | . | -0.3%
CCC(=O)NC(=S)Nc1ccccc1OC | 2.1 | -0.9 | -11.5 | -8.5 | -3.6 | -0.1%
COc1ccc(Cl)cc1S(=O)(=O)n1c([N+](=O)[O-])cnc1C | . | . | -1.3 | 4.4 | -1.2 | 1.4%
CCOc1ccc(S(=O)(=O)N(CC(=O)O)c2ccc(C)cc2)cc1 | -3.2 | 0.5 | 3.5 | -3.8 | -0.6 | 5.6%[38.3 µM]
O=C(/C=C/Nc1ccc(S(=O)(=O)Nc2cnc3ccccc3n2)cc1)c1cccnc1 | 6.3 | -0.2 | ? | -7.3 | -4.9 | -0.9%
Cc1c(C(=O)Nc2nc(-c3ccccn3)cs2)oc2ccccc12 | -5.1 | 3.1 | -73.3* | 0.9 | -0.9 | 5.5%
COc1ccc(Cl)cc1NC(=O)N1CCC2(CC1)Oc1ccccc1C(=O)N2Cc1ccc(F)cc1 | 14.8 | 1.6 | . | . | . | -1.8%
COC(=O)c1ccc(/C=N/NC(=O)C2CC(=O)N(c3ccc(F)cc3)C2)cc1 (configuration not stated) | -13.2 | -0.3 | 6.7 | -17.2 | -1.1 | 0.9%
O=C1CC2(CCN(C(=O)C3CC(=O)N(c4ccc(F)cc4)C3)CC2)Oc2ccccc21 (configuration not stated) | -2.0 | 0.8 | -5.7 | 10.3 | 2.8 | -1.0%
O=C(NNc1nc2c(F)cccc2s1)C1=COCCO1 | 13.7 | -1.0 | 2.3 | 5.8 | 0.5 | -0.8%
CCOC(=O)N1CCN(C(=O)CCc2cc(OC)c(OC)c(OC)c2)CC1 | 21.0 | 0.2 | 6.0 | -8.9 | -2.3 | 0.6%
CC(=O)Nc1ccc(N2C(=O)CC(N3CC(C)OC(C)C3)C2=O)cc1 (configuration not stated) | -14.7 | -0.2 | 12.3 | 4.2 | 2.7 | 3.0%
COc1ccccc1NC(=O)C1CCCN1C(=O)NCc1ccccc1 (configuration not stated) | 4.4 | 1.4 | 8.1 | -13.2 | 0.0 | 0.1%
COc1ccccc1C(=O)NCCC(=O)Nc1ccc(C)cn1 | -9.3 | -0.6 | 0.0 | -7.0 | -0.9 | -0.8%
COc1ccc(/C=C2\COc3ccccc3C2=O)c(OC)c1 | 13.0 | 2.4 | -3.1 | -6.0 | -1.8 | -1.8%
COc1ccc(CN(C(=O)CO/N=C/c2ccccc2)c2ccccc2C(=O)O)cc1 | 2.1 | -0.4 | -1.3 | -0.5 | -1.2 | 1.8%
CC(=O)Nc1ccc(C(=O)Nc2cc(C(F)(F)F)ccc2-n2cnc3ccccc32)cc1 | -10.0 | 3.0 | -5.7 | -2.3 | 3.4 | 1.2%
Cc1ccc(-c2n[nH]c(=S)n2/N=C/c2c(C)[nH]n(-c3ccccc3)c2=O)cc1 | -2.6 | -1.1 | -7.5 | -7.9 | -1.7 | 0.6%
O=C(/C=C/Nc1cccc(C(F)(F)F)c1)c1ccc(Oc2ncccn2)cc1 | -11.2 | 3.0 | 0.7 | 3.7 | 5.1 | 1.9%
CCc1ccc(N2CC(C(=O)N(CC)CC(=O)Nc3c(F)cccc3F)CC2=O)cc1 (configuration not stated) | -4.1 | 0.2 | 31.1 | -5.2 | -1.7 | 0.5%
CC(O)Cc1cn([C@@H](CCCCN)C(=O)N2CCNCC2)nn1 (some centres not stated) | 0.7 | 2.7 | 6.2 | -5.7 | -0.9 | 0.6%
COCC(C)NCc1cc(Br)ccc1OC (configuration not stated) | 16.5 | -0.2 | 4.0 | -5.4 | -2.3 | -0.1%
Cc1cc(NC(=O)CSc2ccc3nnc(CCNC(=O)c4ccccc4)n3n2)no1 | -21.4 | -0.8 | 7.2 | 0.4 | 0.6 | 0.7%

Given with tabs: part of the list above.
SMILES	TRPML1 blocker	TRPML1 ag	Six1-Eya2 blk	D2 PAM	D2 agonist	PINK1 expr mod
Cc1c(C(=O)Nc2nc(-c3ccccn3)cs2)oc2ccccc12	-5.1	3.1	-73.3*	0.9	-0.9	5.5%
COCC(C)NCc1cc(Br)ccc1OC (configuration not stated)	16.5	-0.2	4.0	-5.4	-2.3	-0.1%
COc1ccccc1C(=O)NCCC(=O)Nc1ccc(C)cn1	-9.3	-0.6	0.0	-7.0	-0.9	-0.8%

(cont.)
SMILES | TRPML1 blocker | TRPML1 ag | Six1-Eya2 blk | D2 PAM | D2 agonist | PINK1 expr mod
COC(=O)c1c(-c2cccs2)csc1NC(=O)c1cccc(Cl)c1 | -18.1 | 1.1 | . | . | . | 0.1%
Cc1cc(NC(=O)CCCSc2nc(-c3ccco3)cc(C(F)(F)F)n2)no1 | 26.4 | 0.3 | 7.6 | 5.5 | -1.6 | 8.7%
Cc1cc(C)n2cc(CSc3nnnn3C)nc2n1 | 17.8 | 0.2 | 7.1 | -6.5 | -2.5 | 2.9%
COCC(=O)Nc1ccc(S(=O)(=O)NCCc2ccccc2)cc1 | -16.8 | -0.1 | 8.8 | -7.2 | -3.6 | -1.9%
O=C(CSc1nnnn1C1CC1)Nc1cccc(S(=O)(=O)N2CCCC2)c1 | 4.5 | 1.5 | 2.6 | -2.9 | 1.2 | 2.0%
CCN(CC)c1ccc(CNS(=O)(=O)c2cc3c(cc2C)NC(=O)CO3)cc1 | 0.3 | 0.3 | . | . | . | -1.5%
C/C(CC(=O)NCc1ccccc1)=N\NC(N)=S | -12.0 | -0.4 | 3.0 | -4.0 | -1.0 | 0.0%
Cc1cccc(/C=C/c2onc(C)c2S(=O)(=O)N2CCC(C(=O)N3CCC(C)CC3)CC2)c1 | -10.6&-1.6 | -0.3&0.5 | -4.1 | -11.3 | -1.3 | -1.7%&-0.7%
O=C(NC(=S)Nc1ccc2c(c1)OCCO2)c1cccc(Br)c1 | -26.9 | 1.1 | -23.0 | -1.6 | 0.4 | -0.5%
COc1ccc(-c2nnc(Nc3ccc(OC)c(C(N)=O)c3)c3ccccc23)cc1 | 31.5 | 1.0 | . | . | . | 2.8%
CCc1ccc(NC(=O)C2C3C=CC(C4CC34)C2C(=O)O)cc1 (configuration not stated) | -0.9 | -0.9 | 12.6 | 1.5 | -3.8 | 0.3%
COC(=O)c1ccc(COC(=O)CNC(=O)c2ccc(-c3ccccc3)cc2)cc1 | 5.5 | 0.3 | 9.9 | -1.3 | -0.9 | 5.7%
Cc1ccc(O)c(NC(=O)c2cc(C)no2)c1 | 11.1 | -0.8 | 7.1 | -1.9 | 5.0 | 1.7%
CCOC(=O)C1CCN(C(=O)C(C)c2ccc([N+](=O)[O-])cc2)CC1 (configuration not stated) | -7.9 | -0.4 | 6.2 | 3.8 | 1.8 | 1.2%
C/C(=N\N1CCN(c2ccc(Cl)cc2)CC1)c1cccc([N+](=O)[O-])c1 | -6.0 | -0.6 | ? | -6.6 | -1.7 | -1.3%
CCOc1cc(N2CCOCC2)c(OCC)cc1NC(=O)Cn1cnc2c(=O)n(C)c(=O)n(C)c21 | 7.1 | 0.1 | 8.6 | -0.2 | -2.7 | 1.1%
CCOC(=O)c1nncc(-c2ccccc2)n1 | -10.7 | 1.2 | 0.5 | -4.6 | -2.3 | 1.6%
CCOc1ccc(N(CC(=O)Nc2c(C)n(C)n(-c3ccccc3)c2=O)S(=O)(=O)c2ccc(F)cc2)cc1 | 7.1 | 1.1 | -11.3 | -26.9 | -6.8 | -0.7%
Cn1c(Nc2ccccc2)cc(=O)n(C)c1=O | -3.6 | 0.9 | 11.7 | -2.4 | -2.4 | -0.5%
COc1cccc(-c2noc(-c3cccnc3)n2)c1 | 10.8 | 0.3 | 0.0 | -8.6 | 8.8 | 0.4%
NC(=O)c1ccc(NC(=O)CCNC(=O)c2ccco2)cc1 | -18.8 | -0.2 | 1.4 | -3.1 | -3.7 | 0.3%
C/C(=N/NC(=O)CN1CCN(Cc2ccccc2Cl)CC1)c1cccs1 | -12.8 | 0.3 | -5.6 | -12.5 | -3.0 | 1.9%
O=c1c2ccccc2nc2n1C(CSc1ccc(Cl)cc1)CN2 (configuration not stated) | 5.7 | -0.6 | -5.0 | -8.9 | 0.1 | -3.0%
N#Cc1nc(-c2cccs2)oc1NCc1ccccc1Cl | -0.6 | 1.6 | -11.0 | -3.4 | -0.9 | 2.7%
CCOC(=O)c1cc(NC(=O)Nc2ccc(OC)c(OC)c2)c(C)nc1C | 45.9 | 0.5 | -15.4 | -17.6 | -3.1 | 2.4%

Exported as labelled records: 3 of the compounds above
compound: Cc1cc(C)n2cc(CSc3nnnn3C)nc2n1
  TRPML1 blocker: 17.8	TRPML1 ag: 0.2	Six1-Eya2 blk: 7.1	D2 PAM: -6.5	D2 agonist: -2.5	PINK1 expr mod: 2.9%

compound: CCC(=O)NC(=S)Nc1ccccc1OC
  TRPML1 blocker: 2.1	TRPML1 ag: -0.9	Six1-Eya2 blk: -11.5	D2 PAM: -8.5	D2 agonist: -3.6	PINK1 expr mod: -0.1%

compound: COc1ccccc1C(=O)NCCC(=O)Nc1ccc(C)cn1
  TRPML1 blocker: -9.3	TRPML1 ag: -0.6	Six1-Eya2 blk: 0.0	D2 PAM: -7.0	D2 agonist: -0.9	PINK1 expr mod: -0.8%

Taken from above:
CCOC(=O)C1CCN(C(=O)C(C)c2ccc([N+](=O)[O-])cc2)CC1 (configuration not stated) in TRPML1 blocker is listed with -7.9
CCc1ccc(NC(=O)C2C3C=CC(C4CC34)C2C(=O)O)cc1 (configuration not stated) in Six1-Eya2 blk is listed with 12.6
COc1ccc(-c2nnc(Nc3ccc(OC)c(C(N)=O)c3)c3ccccc23)cc1 in PINK1 expr mod is listed with 2.8%
CCOc1ccc(N(CC(=O)Nc2c(C)n(C)n(-c3ccccc3)c2=O)S(=O)(=O)c2ccc(F)cc2)cc1 in D2 PAM is listed with -26.9
Cc1cc(C)n2cc(CSc3nnnn3C)nc2n1 in TRPML1 blocker is listed with 17.8
